Source: PubChem BioAssay
GIV-Gai inh = inhibitors of GIV GBA-motif binding to rat Galpha-i3 | percent of control (FP), % (no concentration beside the values) | P08753 | actives 0.42% (n = 210,000) | Galpha-i3/FITC-GIV peptide fluorescence polarization, 90 min; hits give low values; scaled: aluminum fluoride 0%, vehicle 100% | AID 1224905;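 active = replicate mean at 85% of control or lower, very high polarization wells dropped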;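 also: wells of about 15 µL received 100 nL stock; the first replicate is given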
Target sequence (P08753 whole entry, looked up): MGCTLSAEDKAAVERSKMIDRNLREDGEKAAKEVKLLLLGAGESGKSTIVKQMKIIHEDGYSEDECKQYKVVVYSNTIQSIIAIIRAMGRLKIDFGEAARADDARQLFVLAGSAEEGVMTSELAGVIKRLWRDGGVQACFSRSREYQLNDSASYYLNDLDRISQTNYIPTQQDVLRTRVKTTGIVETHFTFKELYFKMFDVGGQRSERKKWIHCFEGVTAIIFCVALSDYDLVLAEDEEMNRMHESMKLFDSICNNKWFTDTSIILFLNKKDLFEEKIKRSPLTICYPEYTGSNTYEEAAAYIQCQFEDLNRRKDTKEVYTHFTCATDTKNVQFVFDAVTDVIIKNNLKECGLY
HCMV UL50-53 inh = inhibitors of HCMV UL50-UL53 nuclear egress complex interaction; actives 0.15% (n = 190,000); inhibition, % (concentration not given with the values); HTRF UL50-UL53 interaction, normalized percent inhibition;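 active = both replicates at 50% or more, plus weaker picks with an unusually low signal ratio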;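 also: stock transfer was 100 nL into about 20 µL; 0% = negative control wells and 100% = wells with untagged competitor protein; inactives centre near -12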
Sa growth 42C = S. aureus growth inhibition; S. aureus RN4220 growth, OD600, 20 h, 42 °C; hits give low values; relative growth, % (no concentration beside the values); actives 0.53% (n = 170,000);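 active = growth at 42 °C up to 50% and 20 or more points under that at 30 °C, or under 10% at both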;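 also: 300 nL library stock went into each well; scaled to the means of positive and negative controls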
Sa growth 42C second temp = also measured in Sa growth 42C; calls as there; relative growth, %; measured here: growth at 30 °C;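 optical density after 20 h as mean of two plates; 100% = untreated growth and lower means inhibition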
Active calls of the source: *; · = not tested or not shown; & = joins results of further samples.

Each structure is followed by: Sa growth 42C	HCMV UL50-53 inh	GIV-Gai inh	Sa growth 42C second temp
- CC(C)(C)OC(=O)N1CCC(c2c(C(=O)NCc3ccc4c(c3)OCO4)cnn2-c2ccccc2Cl)CC1
 : 104	·	105	76
- CCN(CC)S(=O)(=O)c1ccc2c(c1)N(CC(=O)Nc1ccc(OC)cc1)C(=O)CS2
 : 105	-23	108	83
- CCSc1nnc(-c2cc(Br)ccc2N)c(=O)[nH]1
 : 100	-27	98	77
- CC1(C)C(=O)N(CC(=O)Nc2ccc3c(c2)OCCO3)c2ccccc21
 : ·	-23	99	·
- CCOC(=O)CSc1nnc(-c2ccncc2)n1-c1ccccc1
 : ·	-23	104	·
- COC(=O)C1=C(C)NC(=O)C1(Nc1nc2ccccc2s1)C(F)(F)F (stereo unspecified)
 : 93	16	109	100
- Cc1nn(C(=O)CCC(=O)N2CCc3ccccc32)c2ccccc12
 : 92	-18	101	88
- CCc1ccc(NC(=O)CC2C(=O)NCCN2C(=O)c2ccc(F)cc2)cc1 (stereo unspecified)
 : 101	-4	106	89
- Cc1ccccc1-c1nc(CS(=O)(=O)CC(=O)NCCCN2CCN(C)CC2)c(C)o1
 : 95	-14	99	89
- Cc1ccc2ncc(C(=O)N3c4ccccc4CC3C)c(=O)n2c1 (stereo unspecified)
 : 96	-23	102	85
- O=C(c1ccc(CSc2nc3ccncc3n2Cc2ccc(F)cc2)cc1)N1CCc2ccccc2C1
 : ·	22	101	·
- COc1ccc(-c2nn(CCC#N)cc2C#N)cc1
 : 92	-3	·	93
- CCN(CCCNC(=O)CCc1nnc2n(Cc3ccccc3)c(=O)c3ccccc3n12)c1cccc(C)c1
 : ·	5	107	·
- Cc1[nH]c2ccc(C(=O)OCC(=O)c3cc4ccccc4o3)cc2c1C
 : 74	-8	·	85
- CC(C)C(=O)NCCc1csc(-c2ccccc2)n1
 : ·	-30	99	·
- CN(C(=O)c1ccc2c(Cl)c3c(nc2c1)CCC3)c1ccccc1Cl
 : 97	·	100	94
- Cc1ccccc1C(=O)NN1C(=O)/C(=C2/C(=O)N(C)c3ccc(Br)cc32)SC1=S
 : ·	-4	106	·
- CCn1c(CSc2ncccn2)nc2cc(C(=O)O)ccc21
 : 84	-1	·	81
- Cc1nc2ccccc2c(C)c1CC(=O)N1CCN(c2ccc(O)cc2)CC1
 : 76	-28	·	86
- CC(=O)N1CCc2c(sc3c2c(=O)n(CCc2ccccc2)c(=O)n3Cc2ccc(F)cc2)C1
 : 103	-31	100	81
- COc1cccc(N2CCN(C(=O)c3ccc4c(Cl)c5c(nc4c3)CCCC5)CC2)c1
 : 113	-43	97	84
- Cc1sc2ncnc(N(C)C3CCCCC3)c2c1C
 : 53	-23	·	40
- Cc1nnsc1C(=O)NC1CCCCNC1=O (stereo unspecified)
 : 95	-6	98	94
- O=C(Nc1ccc(F)cc1)C1CCCN(c2ccc3cc(S(=O)(=O)N4CCCC4)ccc3n2)C1 (stereo unspecified)
 : ·	-3	114	·
- COc1ccc(-c2cc(C(=O)N(C)c3ccccc3)no2)cc1
 : 84	-36	96	74
- CSc1nc2nc3c(cc2c(=O)n1-c1ccccc1C)COC(C)(C)C3
 : 93	-2	104	79
- COc1ccc(CN(C(=O)c2ccccc2F)C2CCS(=O)(=O)C2)cc1 (stereo unspecified)
 : 103	-3	98	93
- COc1ccsc1C(=O)O
 : ·	-25	102	·
- CCOc1ccc(C(NC(=O)c2ccco2)NC(=O)c2ccco2)cc1OC
 : 116	·	101	93
- COc1nccnc1NS(=O)(=O)c1ccc(NC(=O)c2sc3ccccc3c2Cl)cc1
 : ·	-14	107	·
- O=C(Cn1c(-c2cccs2)cc2cc(Cl)ccc21)N1CCN(c2ccccc2)CC1
 : 128	·	113	96
- CC(=O)N1CCN(CC(=O)NCCc2ccc(Cl)cc2)CC1
 : 90	-12	·	95
- Cc1oc(-c2ccccc2)nc1CSc1nnc(C)n2c1cc1sccc12
 : 90	·	106	87
- CCc1nc2ccc(C(=O)NC3CCCCC3)cc2nc1CC
 : 94	3	106	89
- CCC(=O)Nc1cc(-c2nn(C)c(=O)c3ccccc23)ccc1N1CCCCC1
 : 90	16	103	87
- CC(C)(C)c1ccc(/C=C/C(=O)Nc2ccc(S(N)(=O)=O)cc2)cc1
 : 96	-12	110	90
- Cc1nn(-c2ccc(N3CCOCC3)nn2)c(C)c1CCC(=O)NCc1ccc(OC(C)C)cc1
 : 90	·	103	91
- O=C(O)Cc1ccc(NC(=S)Nc2ccc3c(c2)OCO3)cc1
 : 102	11	104	101
- Cn1c(C(C#N)/C(=N\S(=O)(=O)c2ccccc2)c2ccccc2)nc2ccccc21 (stereo unspecified)
 : 78	-14	·	84
- Clc1ccc(-c2nn3c(-c4ccc(Cl)cc4)nnc3s2)cc1
 : 98	-21	98	73
- COc1ccc(NC(=O)Cn2nnc(C(=O)NCCc3ccccc3)c2N)cc1
 : 110	-23	107	87
- COc1ccccc1OCC(O)CN1CCOCC1 (stereo unspecified)
 : 85	4	105	81
- COc1ccccc1C(=O)OCC(=O)N1CCCCCC1
 : 111	-26	·	83
- O=C(Nc1nccs1)c1cc(-c2ccccc2)on1
 : ·	-19	97	·
- CCc1ccc(NC(=O)NCCc2nc3cccnc3n2Cc2ccccc2)cc1
 : ·	7	128	·
- Cc1nc2sccn2c1C(=O)N/N=C\c1ccc(CNS(=O)(=O)c2ccc(Cl)cc2)o1
 : 84	-91	100	83
- O=C(c1ccccc1)N(c1ccc2oc(=O)sc2c1)S(=O)(=O)c1ccccc1
 : 79	·	100	70
- Cc1oc2ncn(CC(C)C)c(=O)c2c1C(=O)NC(C)c1ccccc1 (stereo unspecified)
 : 93	·	107	88
- COc1ccc(NC(=O)c2ccc(COc3cccc(C)c3)o2)cc1
 : 87	·	105	104
- COc1ccccc1Nc1ncc2c(n1)CCN(Cc1cc(F)cc(F)c1)C2
 : 95	·	104	91

Going on with the list.
Each structure is followed by: Sa growth 42C	HCMV UL50-53 inh	GIV-Gai inh	Sa growth 42C second temp
- COc1ccccc1NS(=O)(=O)c1cccc(Cl)c1
 : 111	-6	·	93
- CNC(=O)[C@H]1O[C@@H](n2cnc3c(NCc4cccc(I)c4)ncnc32)C(O)[C@H]1O (stereo partly specified)
 : ·	-12&-18	102	·
- O=C(COc1ccc2c3c(c(=O)oc2c1)CCC3)c1ccc(N2CCCC2)cc1
 : 125	0	104	104
- CN(C(=O)c1noc2c1CCCC2)c1ccccc1
 : 101	0	97	87
- O=C(c1cc2c(=O)oc3ccccc3c2s1)N1CCN(c2cccc(C(F)(F)F)c2)CC1
 : 98	·	101	93
- COC(=O)c1nnc2c(-c3ccccc3)c(C)nn2c1C
 : ·	-154	101	·
- Cn1cc(C(CNC(=O)Nc2cccc(Cl)c2)c2cccnc2)c2ccccc21 (stereo unspecified)
 : ·	-14	102	·
- c1ccc(-c2noc(NCc3ccc4c(c3)OCO4)n2)cc1
 : ·	10	110	·
- Cc1sc(N)c(C#N)c1-c1ccc(Cl)cc1Cl
 : 95	-7	·	91
- CC(C)c1ccc(NC(=O)CSc2cccs2)cc1
 : 104	-8	103	83

Entries of single compounds as entered above:
`CN(C(=O)c1noc2c1CCCC2)c1ccccc1` is entered as Sa growth 42C = 101; HCMV UL50-53 inh = 0; GIV-Gai inh = 97; Sa growth 42C second temp = 87
`Cc1sc(N)c(C#N)c1-c1ccc(Cl)cc1Cl` is entered as Sa growth 42C = 95; HCMV UL50-53 inh = -7; GIV-Gai inh = ·; Sa growth 42C second temp = 91

The main list resumes, repeating the 2 entries before the break.
Each structure is followed by: Sa growth 42C	HCMV UL50-53 inh	GIV-Gai inh	Sa growth 42C second temp
- Cc1sc(N)c(C#N)c1-c1ccc(Cl)cc1Cl
 : 95	-7	·	91
- CC(C)c1ccc(NC(=O)CSc2cccs2)cc1
 : 104	-8	103	83
- COC(=O)c1c(NC(=O)c2cccs2)sc2c1C(C(=O)OC)CC2 (stereo unspecified)
 : 109	14	106	123
- COc1ccc(CN(C)C(=O)c2cccc(N(C)C)c2)cc1
 : 127	12	·	98
- c1ccc(CNCc2cccn2-c2nnc(N3CCCCC3)s2)cc1
 : 106	-22	104	74
- NS(=O)(=O)c1ccc(NC(=O)c2ccc(-n3nnc4cccnc43)cc2)cc1
 : ·	-7	113	·
- CCOc1ccc(Br)cc1S(=O)(=O)n1cccc1
 : 100	-26	·	87
- CCC1(C)Cc2ccccc2-c2nc(-c3ccccc3)n(CCO)c(=O)c21 (stereo unspecified)
 : 114	2	107	106
- COc1ccc(C2CC(=O)N3C(=C2C#N)SCC3(O)c2ccccc2)cc1 (stereo unspecified)
 : 102	-30	113	95
- COc1ccc(S(=O)(=O)Nc2cccc(-c3ccc(N4CCC(C)CC4)nn3)c2)cc1OC
 : 112	·	108	94
- O=C1c2ccccc2-c2c(-c3ccccc3)sc(=O)n21
 : 108	-7	101	93
- CCOC(=O)c1cnc(SCC(=O)Nc2cccc(C)c2)nc1N
 : ·	-28	103	·
- O=C(Nc1ccc(F)c(Cl)c1)N1CCN2CCCCC2C1 (stereo unspecified)
 : 92	·	102	88
- Cc1cc(NC(=O)/C(C#N)=C/c2ccc(Cl)cc2)n(-c2ccccc2)n1
 : 108	-22	·	84
- CCC(C(=O)NCCCN(CC)CC)n1ncn2c(cc3occc32)c1=O (stereo unspecified)
 : 104	-32	99	88
- CCn1c(=O)n(CC)c2cc(N3CCCCC3)c(NC(=O)Nc3cc(Cl)ccc3OC)cc21
 : 89	-19	99&99	96
- Cc1nn(C(C)(C)C)c(OC(=O)c2cccs2)c1Sc1ccccc1
 : 96	-16	108	82
- CC(Oc1cccc(Cl)c1)C(=O)N(C)Cc1nc(-c2ccccc2)no1 (stereo unspecified)
 : 113	-15	104	81
- CC(NC(=O)C1=Cc2ccccc2OC1)c1ccccc1 (stereo unspecified)
 : 85	·	101	81
- Cc1ccn(CCC(=O)O)n1
 : 87	-24	103	91
- O=C(CN1C2=NCCN2c2ccccc21)c1ccco1
 : 94	-34	103	80
- CC(C)Oc1ccc(CNC(=O)C2CCN(C(=O)N3CCOc4ccc(Cl)cc43)CC2)cc1
 : 100	-13	105	79
- O=C(O)C1CCN(C(=O)c2csc(-c3ccc4c(c3)CCO4)n2)CC1
 : 104	-16	97	98
- Cc1ccc(CNC(=O)c2cc3sccc3n2Cc2ccc(F)cc2)cc1
 : 100	-5	101	98
- Cc1ccc2cc3c(nc2c1)N(S(=O)(=O)c1ccc(F)c(C)c1)CC3
 : ·	12	98	·
- O=C(CSc1nnc(-c2cccs2)o1)N1c2ccccc2OCC1c1ccccc1 (stereo unspecified)
 : 118	-14	·	101
- CSc1nc(Nc2ccc(C)cc2)c(C#N)c(-c2ccccc2)n1
 : 88	19	110	104
- CCOC(=O)c1ccccc1NC(=O)Cn1c(=O)n(-c2cc(C)cc(C)c2)c(=O)c2sccc21
 : 102	·	101	102
- Cn1cc(C(F)(F)F)ccc1=S
 : 86	-29	98	98
- COc1ccc(C2C3=C(Nc4ncnn42)c2ccccc2CCC3)cc1 (stereo unspecified)
 : 97	-22	·	94
- Nc1nc(SCc2nc(-c3ccccc3)no2)n[nH]1
 : 102	-8	104	88
- C1CCC(NC2=NCCC2)CC1
 : 96	-12	·	90
- CCc1ccc(NC2c3ccccc3C(=O)N2c2ccccc2C)cc1 (stereo unspecified)
 : 75	·	97	86
- COC(=O)c1oc2c(c1C)C(=O)CCC2
 : 105	-16	102	88
- COc1cc2c(cc1OC)C(=NC(C)C(=O)O)NC(C)(C)C2 (stereo unspecified)
 : 106	-9	·	88
- COc1cccc2sc(NC(=O)c3ccccc3NS(=O)(=O)c3ccc(C)cc3)nc12
 : ·	-10	104	·
- Cc1c(C(=O)NC2CCCCC2)c(C)n2cnn(CC(=O)NCCCN3CC(C)CC(C)C3)c(=O)c12 (stereo unspecified)
 : 91	·	97	88
- CC(C)NC(=O)N(Cc1ccccc1)Cc1cccs1
 : 92	-8	98	90
- O=C(CSc1nnnn1-c1ccc2c(c1)OCCO2)c1ccc2c(c1)OCCO2
 : 110	-15	99	98
- Cc1cc(C)c2c(c1)C(=O)CCC2
 : 100	-18	·	91
- O=C(NC(=O)c1ccccc1O)c1ccc(F)cc1
 : 97	-18	100	35
- COc1cc(C(=O)NCCc2sc(-c3ccc(C)cc3)nc2C)cc(OC)c1OC
 : 85	·	97	79

Arranged by length of the SMILES (low to high): some entries from above
Each structure is followed by: Sa growth 42C	HCMV UL50-53 inh	GIV-Gai inh	Sa growth 42C second temp
- COc1ccc(C2C3=C(Nc4ncnn42)c2ccccc2CCC3)cc1 (stereo unspecified)
 : 97	-22	·	94
- CCC(C(=O)NCCCN(CC)CC)n1ncn2c(cc3occc32)c1=O (stereo unspecified)
 : 104	-32	99	88
- CCOc1ccc(C(NC(=O)c2ccco2)NC(=O)c2ccco2)cc1OC
 : 116	·	101	93

The results go on:
Each structure is followed by: Sa growth 42C	HCMV UL50-53 inh	GIV-Gai inh	Sa growth 42C second temp
- O=C(COCc1cc(-c2cccs2)on1)N1CCN(c2ccc(F)cc2)CC1
 : 105	·	98	88
- COc1ccc(C2C=C(c3ccc(Br)cc3)Nc3c(C(=O)Nc4ccccc4)cnn32)cc1 (stereo unspecified)
 : ·	-8	109	·
- N#CC(CC(=O)c1cccs1)c1ccccc1 (stereo unspecified)
 : 110	-4	107	112
- CC1CCCN(S(=O)(=O)c2ccc(NC(=O)CSc3nc4ccccc4o3)cc2)C1 (stereo unspecified)
 : 99	-11	104	83
- CC1CCN(CC(=O)N2CCN(c3ccccc3)CC2)CC1
 : 111	5	102	95
- O=C(O)C(Cc1ccccc1)NS(=O)(=O)c1cccc2cccnc12 (stereo unspecified)
 : 82	·	101	91
- COc1cccc(CNC(=O)C(C)n2ncn3cccc3c2=O)c1OC (stereo unspecified)
 : 105	2	102	95
